LANA-nucl inh – inhibitors of KSHV LANA-nucleosome binding, primary screen, biochemical, fluorescence polarization, FITC-LANA1-23, chicken nucleosomes | 0.3% of 51,000 active | FITC-LANA1-23 / chicken nucleosome fluorescence polarization; active compounds read low | z-score (test concentration not listed);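 active means both repeat wells score below -2 in polarization z-score versus plate sample wells, excluding overly bright wells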;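 further: 100 nL library stock added to about 30 µL; numbers are from one replicate; some results filed as inactive read as strong as hits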
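test system = FITC-LANA peptide and chicken nucleosomes | amount = 240 nM purified chicken nucleosomes (480 nM peptide binding sites), final | reagent = 50 nM FITC-LANA1-23 probe | medium = TEN-BT buffer, pH 7.5 | doses = single compound addition by pin transfer, 100 nL per well | timing = 10–45 min, room temperature | detection = fluorescence polarization | repeats = duplicate plates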
Ab BasE inh – BasE siderophore enzyme inhibitors, primary screen, biochemical, Acinetobacter baumannii ATCC 17978, fluorescence polarization | inhibition, % (no concentration beside the values) | purified BasE, fluorescence polarization binding displacement | 0.1% of 84,000 active | AID 485350, 2010;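 active means both replicates above 25% with normal brightness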;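 further: 0% = negative plate control signal and 100% = positive plate control signal; stock transfer was 100 nL into about 30 µL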
* = called active by the depositor; . = not tested or not shown; & = joins results of further samples. These rows are one share of the data. The share of hits here may be higher or lower than overall.

Results follow in this order: LANA-nucl inh	Ab BasE inh
CCc1nn2c(=O)cc(CN(C)Cc3ccccc3)nc2s1
 : 0.96	-0.7
CCOC(=O)c1c(C)n(-c2ccccc2)c2ccc(OC(=O)c3ccco3)cc12
 : -0.087	0.5
O=C(NC1CCCC1)N1CC=C(c2c[nH]c3ccccc23)CC1
 : -0.42	-1.1
Cc1ccccc1C1CC(=O)c2c(ccc3ccccc23)N1 (stereo not given)
 : .	0.7
COC(=O)C1CC23C=CNC4CCC5(c6ccccc6NC15C2C)C43 (stereo not given)
 : 1.3	-5.0
COc1ccccc1CNC(=O)[C@@H]1CCCN1S(=O)(=O)c1ccc(C)cc1
 : .	0.7
CCCCNC(=O)Cn1nnc(-c2cccc(C(F)(F)F)c2)n1
 : .	-3.0
CN(C(=O)c1ccc(N)cc1)c1ccccc1
 : 1.3	-4.4
COc1ccc(-c2onc(C)c2C)cc1S(=O)(=O)Nc1ccc(N2CCC(C)CC2)cc1
 : .	1.6
CC1CN(c2nc(C(F)(F)F)cc(=O)[nH]2)CC(C)O1 (stereo not given)
 : -0.22	.
CCOC(=O)c1oc2ccccc2c1COC(=O)CNC(=O)c1cccs1
 : .	-1.7
c1nc(Nc2ccc(N3CCOCC3)cc2)c2ccsc2n1
 : .	0.6
COCCNC(=S)Nc1ccccc1
 : .	2.6
CCn1cc(C(=O)NCCc2ccc(OC)c(OC)c2)c(=O)c2cc(S(=O)(=O)N(C)C)ccc21
 : 0.41	1.1
CCOc1ccc(Br)cc1S(=O)(=O)Nc1ccc(N)cc1
 : .	0.1
CSc1nc(NC(C)=O)nc(C)c1Br
 : 0.17	-2.4
CCOC(=O)c1cnc(SCc2c(C)cc(C)cc2C)nc1C(F)(F)F
 : .	2.8
CNCc1cc(=O)[nH]c2ccccc12
 : -0.099	0.6
Cc1[nH]n(-c2ccccc2)c(=O)c1C(=O)C(F)(F)F
 : -0.61	0.2
COc1cccc(OCc2nnc(SCc3ccccc3)n2C)c1
 : -1.4	-2.5
CN(CCC#N)c1ccc(/C=C2\CC/C(=C\c3ccc(N(C)CCC#N)cc3)C2=O)cc1
 : .	-25
C/C=C/C1OCC2C(C)C=C(C)C1C2C (stereo not given)
 : 0.79	2.3
NC(=O)c1cc2cc(Br)ccc2oc1=O
 : -0.13	-1.7
O=C(NC1CCCC1)C(c1ccsc1)N(C(=O)Cc1cccs1)c1ccccc1 (stereo not given)
 : 0.058	-0.8
CCn1c(Sc2ccc(N)cc2Cl)nc2ccccc21
 : 0.23	3.0
COc1ccc(CNCC(O)c2nnn(C)n2)cc1OC (stereo not given)
 : 0.63	-2.4
O=C1c2ccccc2S(=O)(=O)N1Cc1cc(=O)[nH]c(=O)[nH]1
 : .	1.7
Cc1ccc(CSc2nc3nccnc3c(=O)n2CCC(C)C)cc1
 : 0.89	0.5
CC(Sc1cccc2cccc(C(=O)O)c12)C(=O)O (stereo not given)
 : -0.68	1.8
O=C(O)CCCc1ccc(F)cc1
 : 0.057	0.7
CC(C)C1c2cccn2CCN1C(=O)Nc1ccccc1 (stereo not given)
 : 0.0085	-1.7
CC1CCNC(c2cccn2C)CC1 (stereo not given)
 : .	-0.7
CN1CCN(S(=O)(=O)c2cccc(C(=O)Nc3cc(C(F)(F)F)cc(C(F)(F)F)c3)c2)CC1
 : .	-0.6
CC(C)(C)S(=O)(=O)/C(C#N)=C/N1CCN(C(c2ccccc2)c2ccccc2)CC1
 : .	1.5
CCOc1ccc(NC(=O)c2cc3oc(C)cc3n2Cc2ccc(C)cc2)cc1
 : -0.45	1.0
CC1(C)S[C@@H]2[C@H](NC(=O)COc3ccccc3)C(=O)N2[C@H]1C(=O)O
 : -0.62&-0.14&0.7	-0.3
CCC(=O)N(Cc1ccco1)c1nc(-c2ccccc2)cs1
 : -0.34	1.2
COc1ccc(NC(C)=S)cc1C
 : .	3.6
COc1cccc(C2CC(c3cccs3)=NN2C(=O)CSc2nncn2C)c1OC (stereo not given)
 : .	-0.8
CCC(C)NC(=O)c1cc(C(=O)c2ccccc2)c[nH]1 (stereo not given)
 : 0.0065	.
OC1(Cc2ccccc2)CCCCC1
 : 1.5	-3.0
CCOc1ccc(N=Cc2sc3ccccc3c2O)cc1
 : 5	-56
CCOC(=O)N1CCN(S(=O)(=O)N2CCC(C(=O)O)CC2)CC1
 : 0.018	-1.3
O=C(Nc1ccc(Cl)cc1C(=O)Nc1cccc(Cl)c1)c1ccco1
 : -0.36	1.6
O=C(CN1CCN(S(=O)(=O)c2ccc(F)cc2)CC1)Nc1ccc(F)c(F)c1
 : 0.3	-2.1
CCOc1ccccc1OCCC(=O)O
 : .	-2.2
O=C(Cn1c(=O)oc2cc(Cl)ccc21)N1CCN(c2ccccc2)CC1
 : 0.4	1.1
Cc1ccc(S(=O)(=O)[N-]c2nc3ccccc3nc2-n2cc[n+](C)c2)cc1
 : .	-0.7
COC(=O)/C=C1\S/C(=N\c2ccccn2)N(c2ccc(Cl)cc2)C1=O
 : .	1.2
Cc1sc(N=Nc2c(O)[nH]c(=O)[nH]c2=O)c(C#N)c1C
 : .	1.4

(further entries)
Results follow in this order: LANA-nucl inh	Ab BasE inh
COc1cccc2s/c(=N/C(=S)NC(=O)c3ccc(C)cc3)n(C)c12
 : .	2.5
Cc1ccc(C(=O)Nc2cc3ccccc3oc2=O)cc1
 : .	0.3
Cc1ccc(C)c(S(=O)(=O)N2CCN(C(=O)[C@H](C)N3C(=O)C4CC=CCC4C3=O)CC2)c1 (stereo not given in full)
 : .	2.7
O=C1NC2(CCCCCC2)C(=O)N1CCOc1cccc(Cl)c1
 : .	1.3
CCCN(C(=O)C1CC1)c1nnc(-c2ccc(Cl)cc2)s1
 : -0.27	-0.5
CCn1c(-c2cc(C)n(C)n2)n[nH]c1=S
 : .	4.1
N#Cc1c(N)sc(=S)c2c1CCCC2
 : -0.02	3.9
Cc1ccc(C)c(N2CCN(C(=O)Cn3ncc4ccccc43)CC2)c1
 : -0.48	-0.2
Cc1cc(C)nc(SCC(=O)OCc2nnc(-c3ccccc3)o2)n1
 : .	-2.2
COc1cc(OC)cc(C(=O)NCCSc2ccccc2)c1
 : -0.58	3.1

2 of the compounds above, field by field:
COc1ccc(-c2onc(C)c2C)cc1S(=O)(=O)Nc1ccc(N2CCC(C)CC2)cc1
  LANA-nucl inh: .
  Ab BasE inh: 1.6

CC1CN(c2nc(C(F)(F)F)cc(=O)[nH]2)CC(C)O1 (stereo not given)
  LANA-nucl inh: -0.22
  Ab BasE inh: .

Another view of two compounds above:
Cc1ccc(C)c(S(=O)(=O)N2CCN(C(=O)[C@H](C)N3C(=O)C4CC=CCC4C3=O)CC2)c1 (stereo not given in full)
  LANA-nucl inh: .
  Ab BasE inh: 2.7

O=C1NC2(CCCCCC2)C(=O)N1CCOc1cccc(Cl)c1
  LANA-nucl inh: .
  Ab BasE inh: 1.3

Other results follow:
Results follow in this order: LANA-nucl inh	Ab BasE inh
O=C(COC(=O)C1=NN(c2ccccc2)C(=O)CC1)NC1CCCC1
 : .	-2.0
Cc1cccc(NC(=O)/C(=C\c2ccco2)NC(=O)c2cccs2)c1
 : 1	-2.3
Cc1cc(=O)n(-c2ccccc2)n1C
 : 0.68&-0.69&-0.42	-2.3&-3.4
Cc1cc(Nc2ccccc2)n(C)n1
 : .	3.7
Cc1cn2c(CC(=O)O)csc2n1
 : .	-0.8
O=C(NCc1ccccn1)c1cc2n(n1)C(C(F)(F)F)CC(c1ccco1)N2 (stereo not given)
 : -0.61	2.2
CC1CCN(CC(=O)Nc2ccc(S(N)(=O)=O)cc2)CC1
 : .	1.1
COc1ccc(NC(=O)CCn2c(=O)oc3ccccc32)cc1
 : 0.73	2.6
Cc1onc(-c2ccccc2Cl)c1C(O)c1ccc(F)cc1 (stereo not given)
 : 0.041	-1.6
O=S(=O)(Nc1ccccc1)c1ccc(N2CCCCS2(=O)=O)cc1
 : 0.21	0.9
CCOC(=O)C1=C2SCCN2C(=O)C(C#N)C1(C)C (stereo not given)
 : 0.31	1.4
O=C(Cc1cccc(C(F)(F)F)c1)Nc1nnc(-c2ccccc2)o1
 : .	4.1
O=C(OCc1nc2ccccc2s1)[C@@H]1CCCN1S(=O)(=O)c1ccc(Cl)cc1
 : .	1.1
c1ccc2c(c1)Nc1cc3ccccc3cc1O2
 : 0.48	2.3
CCOc1ccccc1CNS(=O)(=O)c1cnc[nH]1
 : .	0.7
CC(=O)NCCN=Cc1c(O)[nH]c(=O)[nH]c1=O
 : .	1.5
CO/C=C(/Oc1ccc(Cl)cc1Br)C(=O)OC
 : 0.52	.
Cc1cccc(CSc2nc(N)cc(=O)[nH]2)c1
 : .	-0.4
O=C(Cn1ncc2c1-c1ccccc1OC2)NCc1ccccc1
 : -0.2	2.9
CC(C)NC(=O)CCn1cnc2onc(-c3ccc(F)cc3)c2c1=O
 : .	-1.0
COC(=O)c1cc(S(=O)(=O)N2CCCCCC2)c[nH]1
 : -1.4	0.5
O=C(O)C1C2CCCCC2=C2CCCCC2C1C(=O)c1ccccc1 (stereo not given)
 : 1.1	-3.5
O=C(NCc1ccc(Cl)cc1)c1ccc2c(=O)n3c(nc2c1)CCCCC3
 : -0.31	-6.0
COc1ccccc1-n1cnc2cc(N=Cc3ccccc3O)ccc21
 : .	-0.2
CCN(CC)c1ccc(C=C(C#N)C#N)c(OC(C)=O)c1
 : 0.67	-18
O=C1Nc2ccccc2O/C1=C\c1ccc(C(=O)NCCCN2CCOCC2)cc1
 : -0.18	-2.6
CCc1ccc(N2C(=O)Nc3ccccc3N2O)cc1
 : .	0.5
Cc1noc(C)c1COc1cc2ccccc2cc1C(=O)NCC(F)(F)F
 : .	-4.1
Cn1c(Cc2ccc(Cl)cc2)nc2ccccc21
 : -1	-1.6
Cc1cc(-c2ccc(C)c(S(=O)(=O)Nc3cccc(C(F)(F)F)c3)c2)on1
 : .	-1.0
COC(=O)C1=C(O)CSC1=Nc1cccc(C(F)(F)F)c1
 : .	-1.7
Cc1cc(C)c(C(=O)COc2ccccc2O)cc1C
 : .	9.0
O=C1CSc2ccc(C(=O)NCCN3CCCCCC3)cc2N1
 : -0.37	-13
O=C(CNC(=O)c1ccccc1F)NC1CCN(Cc2ccccc2)CC1
 : .	1.7
Cc1ccc(C2=NN(C(=O)CNc3ccccc3C#N)C(c3ccco3)C2)cc1 (stereo not given)
 : .	-0.9
Cc1cc2c(cc1S(=O)(=O)NCCN1CCCCCC1)OCC(=O)N2
 : -0.25	1.8
Cc1cc(NS(=O)(=O)c2ccc(NS(=O)(=O)CC34CCC(CC3=O)C4(C)C)cc2)no1 (stereo not given)
 : .	1.0
CCN(CC)c1ccc(-c2nc(NC(C)=O)c3c(=O)oc4ccccc4c3n2)cc1
 : -1.1	4.2
NCCCNC(=O)c1ccc(/C=N\O)nc1
 : -0.94	2.9
NC(=O)C1CCN(C(=O)/C=C2\Sc3ccccc3NC2=O)CC1
 : 2.4	-0.9
Cc1cccc(N2CCN(CC(=O)NCc3cccs3)CC2)c1C
 : 1.9	-3.8
COc1cc(/C=N/n2cnc3scc(-c4cccs4)c3c2=O)ccc1O
 : .	10
CCCOC(=O)COc1ccc2c3c(c(=O)oc2c1C)CCCC3
 : -0.15	1.0
O=C(Nc1ccc2c(c1)CCC2)C1CCN(c2ccc(S(=O)(=O)N3CCCC3)cc2)CC1
 : -1.3	0.4
CCOC(=O)/C(=N\Nc1ncnc2ccccc12)c1ccc(OC)cc1
 : .	0.8
Cc1cc(N)n(N)c(=O)c1
 : .	-0.8
CCSc1nc2ncnc(N)c2[nH]1
 : .	3.5
O=C(CSc1ccc(F)cc1)OCCN1CCOCC1
 : .	2.6
Cn1c(=O)c2c(ncn2C/C=C/c2ccccc2)n(C)c1=O
 : -0.53	0.1
Cc1oc2ccccc2c1CNC(N)=O
 : .	-4.0

(list continues)
Results follow in this order: LANA-nucl inh	Ab BasE inh
CCC(=O)Nc1nnc(C(C)(C)C)s1
 : 0.49	1.4
CC(=O)N1c2ccccc2C(=O)C1N1CCCCC1 (stereo not given)
 : -0.43	1.8
O=S(=O)(c1ccc(-n2cnnn2)cc1)N1CCCC2CCCCC21 (stereo not given)
 : 1.3	-0.7
O=C1CC(c2ccccc2)=NN1
 : .	3.4
COc1ccccc1N(CC(=O)Nc1sc2c(c1C(N)=O)CCC2)S(=O)(=O)c1cccs1
 : .	-0.7
CC1(C)Cc2ccccc2/C(=C/C(=O)N2CCCCCC2)N1
 : 1.1	-1.9
O=C(O)C1(c2ccc(O)cc2)CCCC1
 : -0.34	1.7
CC(CC(=O)N1CCN(c2ccccn2)CC1)n1ccnc1 (stereo not given)
 : .	-3.4
O=C(NC1CCCCC1)C1c2ccccc2C(=O)N1C1CCCC1 (stereo not given)
 : 0.22	-0.3
Nc1nonc1-c1nc2ccccc2n1CC(=O)N1CCCCC1
 : -0.52	-0.6
NNC(=O)CN1C(c2ccc(Cl)cc2)=Nc2ccc(Cl)cc2C1c1ccccc1 (stereo not given)
 : .	-14
CN1CCN(c2cnn(-c3ccccc3)c(=O)c2Br)CC1
 : 0.13	-0.1
CCN(CC)c1ccc(C(=O)Nc2nc(-c3ccc(C)o3)cs2)cc1
 : -0.29	2.1
CC(C)CC(C(=O)O)N1Cc2ccccc2C1=O (stereo not given)
 : -0.58	.
O=C(OCCOc1ccccc1)c1cc(=O)[nH]c2ccccc12
 : .	0.3
CC(C)[C@H](NC(N)=O)C(=O)NCc1ccccc1
 : .	1.8
COCc1cc(C)nc(OCC(=O)N/N=C/c2cccnc2)c1C#N
 : -0.52	0.9

Source: PubChem BioAssay (ICCB-Longwood Screening Facility, Harvard Medical School)
